RGS16-Gao HTS – regulators of human RGS16-Galphao interaction; O15492+P09471; bead-based flow cytometry RGS16-Galphao binding, fluorescence; actives lie on both sides; binding response (% of control), % at 10 µM; 220,000 compounds, 0.38% hits; AID 1441;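 active = below 25% or above 175%, edge rows of some plates excepted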;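 also: Galphao activated by GDP with aluminum fluoride before binding; 100% = wells without compound and 0% = beads without RGS; some results beyond the cut were filed as inactive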
Target sequence (O15492 whole entry, looked up): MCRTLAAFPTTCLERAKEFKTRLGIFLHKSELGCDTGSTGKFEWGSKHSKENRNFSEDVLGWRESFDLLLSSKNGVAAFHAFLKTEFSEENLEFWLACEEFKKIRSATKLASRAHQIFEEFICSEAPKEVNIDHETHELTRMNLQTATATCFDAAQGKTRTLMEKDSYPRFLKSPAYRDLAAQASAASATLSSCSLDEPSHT
Target sequence (P09471 whole entry, looked up): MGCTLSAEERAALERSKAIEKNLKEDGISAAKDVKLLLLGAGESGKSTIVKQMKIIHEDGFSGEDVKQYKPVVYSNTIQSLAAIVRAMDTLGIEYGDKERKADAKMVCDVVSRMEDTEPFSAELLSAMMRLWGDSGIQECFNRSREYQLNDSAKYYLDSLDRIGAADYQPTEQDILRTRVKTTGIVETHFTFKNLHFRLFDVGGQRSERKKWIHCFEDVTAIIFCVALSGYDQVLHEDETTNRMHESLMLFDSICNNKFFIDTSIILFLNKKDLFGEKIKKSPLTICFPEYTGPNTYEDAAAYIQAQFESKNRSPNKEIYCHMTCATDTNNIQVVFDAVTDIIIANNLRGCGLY
GALR2 ag – activates the human galanin receptor 2; GALR2-expressing cells, agonist activation read-out; AID 803; activation, %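 (tested at 5 µM)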; 140,000 compounds, 0.48% hits; O43603;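 active = above mean plus 3 SD of all compounds, about 5% in these data, not always enough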;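 also: 0% = vehicle buffer wells and 100% = reference agonist at full effect; tested in CHO reporter cells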
Target sequence (O43603 whole entry, looked up): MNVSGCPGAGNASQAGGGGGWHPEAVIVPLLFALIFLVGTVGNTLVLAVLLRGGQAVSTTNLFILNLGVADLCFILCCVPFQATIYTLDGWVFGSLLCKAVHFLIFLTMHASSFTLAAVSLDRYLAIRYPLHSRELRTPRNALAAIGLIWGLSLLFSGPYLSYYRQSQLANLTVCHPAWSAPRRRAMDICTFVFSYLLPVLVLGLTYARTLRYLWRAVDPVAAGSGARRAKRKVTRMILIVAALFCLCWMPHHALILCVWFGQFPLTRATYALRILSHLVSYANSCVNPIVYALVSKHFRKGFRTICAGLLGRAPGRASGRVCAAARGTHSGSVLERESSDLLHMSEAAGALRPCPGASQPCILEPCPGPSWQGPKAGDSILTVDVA
INS promoter inh – TRM-6 insulin promoter activity inhibition; TRM-6 cells (human fetal islet line), insulin promoter-eGFP reporter, imaging; reporter expression induced with tamoxifen; inhibition, % at 2 µM; 130,000 compounds, 0.9% hits;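 active = inhibition above the mean plus 3 SD, with well images judged a real hit on visual review, cut at about 60% in these data, passing the limit was not always enough; inconclusive = inhibition over the cutoff but images rejected on review; inactive = inhibition not above the cutoff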
HSV replic up – increases HSV replication in cells; maximum fold increase; HSV replication augmentation in cells, fold increase; 220,000 compounds, 0.005% hits; AID 1956;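 active = peak rise of 1.5-fold or more in the series; inconclusive = self-fluorescent or not available for retest; tested in PC3 cells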;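 also: first round at 10 µM; read as green reporter fluorescence; hits show the peak of a series up to 25 µM; 1 = signal of infected wells without compound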
PKD1 inh – blocks activity of human protein kinase D1. 200,000 compounds, 0.056% hits. Q15139. AID 797. PKD1 kinase fluorescence polarization assay. inhibition, %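 (about 10 µM by stock and volumes)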;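 active = inhibition of 50% or more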;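 also: controls were vehicle for no effect and a reference inhibitor for full effect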
INS promoter inh cell count – second read-out of INS promoter inh, no call of its own (marks repeat the call); normalized cell count, %; measured here: cell count, toxicity; reference of the scale not given here;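 cells exposed to compound for 48 h; stained nuclei by imaging scaled within each plate; lower means fewer cells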
HSV replic up primary fold – second read-out of HSV replic up, no call of its own (marks repeat the call); fold increase; compound at 10 µM; measured here: primary screen fold increase 10 uM; tested in PC3 cells;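 GFP signal in the first replicate; 1 = infected wells without compound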
* hit, by the source's call; i = inactive; u = inconclusive; x = not tested or not shown; [ ] = remark or other dose.

SMILES | RGS16-Gao HTS | GALR2 ag | INS promoter inh | INS promoter inh cell count | HSV replic up | HSV replic up primary fold | PKD1 inh
COc1ccc(/C=N\NC(=O)CC(=O)Nc2cccc(Cl)c2)cc1OC | 106.4 | x | 35.1 | 94.6 | i | 0.8 | -9.7
CCn1c(CNc2ccc(C)cc2C)nnc1SCC(=O)N1CCCc2ccccc21 | 95.5 | -3.3 | x | x | i | 0.89 | -13.2
Cc1ccc(OCC(=O)NNC(=O)C(=O)N2CCCC2)c(C)c1 | 243.7*[activator] | -2.1 | 38.5 | 109.2 | x | x | 7.3
CC(C)[C@H](NC(N)=O)C(=O)Nc1ccc(F)c(Cl)c1 | 117.2 | x | x | x | i | 1.06 | 2.2
CCOc1ccc(NC(=O)CN2CCN(CC(=O)Nc3ccc(Cl)c(C(F)(F)F)c3)CC2)cc1 | 107.5 | -1.2 | x | x | i | 0.94 | -5.5
O=C(CNC(=O)c1ccccc1)OCc1nc2ccccc2s1 | 99.4 | -2.1 | 35.3 | 157.0 | i | 1.01 | -15.5
C[C@@H]1C[C@H]2[C@@H]3CCC4=CC(=O)C=C[C@]4(C)[C@@]3(F)[C@@H](O)C[C@]2(C)[C@@]1(O)C(=O)COP(=O)(O)O | 93.5 | -1.7 | 9.1 | 95.1 | i | 0.98 | 2.1
O=C(O)CNC(=O)CCN1C(=O)c2ccccc2C1=O | 119.3 | -0.6 | -3.6 | 92.2 | i | 0.91 | 1.0
CCOC(=O)c1cc(C)sc1NC(=O)C(c1ccccc1)c1ccccc1 | 107.4 | -1.3 | -50.0 | 74.0 | i | 1.05 | -5.8
Cc1ccc(Cn2c(SCC(=O)NCC3CCCO3)nc3ccsc3c2=O)cc1 (stereo not drawn) | 100.6 | x | x | x | i | 0.9 | 1.7
Cc1cccn(Cc2c(F)cccc2Cl)c1=O | 82.7 | x | x | x | i | 1.11 | x
O=C(O)c1ccccc1-c1ccccc1C(=O)NCc1ccco1 | 102.1 | -0.7 | 1.2 | 71.4 | i | 0.76 | -5.5
COc1cccc(C(=O)Nc2c(C)n[nH]c2C)c1 | 118.6 | -0.8 | -318.6 | 33.0 | i | 0.8 | -5.0
O=S(=O)(c1ccc(Cl)s1)N1CCc2ccccc2C1 | 101.9 | -4.0 | 23.3 | 97.6 | i | 0.97 | 5.0
O=C1C(Nc2ccc(O)cc2)=C/C(=N/S(=O)(=O)c2cccs2)c2ccccc21 | 102.0 | x | x | x | i | 0.66 | -5.3
CC(C)(C)N(CC#CCC1(O)c2ccccc2-c2ccccc21)CCO | 101.0 | x | x | x | i | 0.92 | -6.5
Cc1cccc(C)c1NC(=O)COC(=O)c1cccc2c1C(=O)c1ccccc1C2=O | 108.5 | 0.2 | x | x | i | 0.94 | -4.0
O=S1CC/C(=N\O)c2ccccc21 (stereo not drawn) | 93.9 | -0.5 | 42.9 | 113.2 | i | 0.81 | -4.4
CN(C)S(=O)(=O)c1ccc(C(=O)Nc2ccc(Cl)cc2)cc1 | 87.8 | 0.5 | x | x | i | 0.91 | -5.8
O=c1c2c(-c3cccs3)csc2ncn1-c1ccc(Br)cc1 | 103.8 | -0.4 | -34.2 | 115.0 | i | 0.84 | 3.0
CCN(CC)S(=O)(=O)c1cc(NC(=O)c2n[nH]c(=O)c3ccccc23)ccc1C | 103.9 | x | x | x | i | 1.01 | -1.7
CC1(C)OC(=O)C(=NNc2ccccc2C(=O)O)C(=O)O1 | 99.4 | x | x | x | i | 1.2 | x
CCC(=NCCc1c(C)[nH]c2ccc(OC(F)(F)F)cc12)C1=C(O)CC(c2ccccc2)CC1=O (stereo not drawn) | 107.2 | x | -100.0 | 33.9 | i | 0.68 | -2.8
Cc1cccc(OCc2nnc(SCC(=O)Nc3cccc(C(=O)N4CCOCC4)c3)n2C)c1 | 97.8 | -0.2 | x | x | i | 1.02 | -2.7
O=C(CSCc1ccccc1)Nc1cccc(C(=O)Nc2ccc(C(=O)O)cc2)c1 | 102.2 | -0.7 | 28.6 | 88.0 | x | x | -4.8

Limited to RGS16-Gao HTS and HSV replic up primary fold, for some of the entries so far:
| structure | RGS16-Gao HTS | HSV replic up primary fold |
| --- | --- | --- |
| CCC(=NCCc1c(C)[nH]c2ccc(OC(F)(F)F)cc12)C1=C(O)CC(c2ccccc2)CC1=O (stereo not drawn) | 107.2 | 0.68 |
| O=C1C(Nc2ccc(O)cc2)=C/C(=N/S(=O)(=O)c2cccs2)c2ccccc21 | 102.0 | 0.66 |
| O=C(O)CNC(=O)CCN1C(=O)c2ccccc2C1=O | 119.3 | 0.91 |
| CCn1c(CNc2ccc(C)cc2C)nnc1SCC(=O)N1CCCc2ccccc21 | 95.5 | 0.89 |

Carrying on:
SMILES | RGS16-Gao HTS | GALR2 ag | INS promoter inh | INS promoter inh cell count | HSV replic up | HSV replic up primary fold | PKD1 inh
COc1ccc(CC(=O)NNC(=O)CSc2nnc(Cc3ccc(OC)cc3)n2-c2ccccc2)cc1 | 104.6 | -1.4 | 71.4* | 83.1* | i | 1.17 | 0.9
CCCc1noc(-c2cccc([N+](=O)[O-])c2)n1 | 95.6 | x | x | x | i | 0.86 | -1.6
COC(/C=C/Nc1ccc(OC)cc1)=C(C#N)C#N | 100.0 | -1.0 | 18.5 | 112.8 | i | 0.75 | -1.1
COc1ccc(-c2nn3c(C4CCCCC4)nnc3s2)cc1OC | 94.2 | 2.1 | x | x | i | 0.72 | 1.5
Cc1nc(CS(=O)(=O)c2ccccc2)cc(N2CCN(c3ccccc3F)CC2)n1 | 110.2 | x | -90.9 | 117.0 | i | 0.95 | 0.1
CC(C)(C)NC(=O)NC(=O)CN1CCc2ccccc21 | 101.9 | x | x | x | i | 1.04 | -6.1
COc1ccc(-c2ncncc2-c2csc(C)n2)c(O)c1OC | 103.3 | -3.8 | 0.0 | 97.1 | i | 0.98 | -6.5
Cc1cccc2sc(NC(=O)c3ccc(OCC4CCCO4)cc3)nc12 (stereo not drawn) | 96.1 | x | x | x | i | 0.94 | 0.0
CC(=O)Nc1cccc(-c2cc(-c3c(Cl)cccc3Cl)no2)c1 | 98.3 | x | x | x | i | 0.93 | x
Cc1nc(NC2CCCC2)sc1C(=O)N(C)C | 102.4 | -1.5 | 30.4 | 91.3 | i | 1.05 | -6.8
COc1cc(NC(=O)c2cccc(Br)c2)nc(OC)n1 | 102.8 | x | x | x | i | 0.96 | 3.1
COC(=O)c1cc(NC2c3ccccc3C(=O)N2Cc2ccco2)cc(C(=O)OC)c1 (stereo not drawn) | 101.9 | -3.2 | x | x | i | 0.86 | -4.2
O=C(NC(NC(=S)Nc1ccccc1Cl)C(Cl)(Cl)Cl)c1cccc(Cl)c1 (stereo not drawn) | 95.7 | 0.3 | 11.1 | 128.4 | i | 1.16 | 14.1
O=C(NCCc1ccccc1)C1CCN(C2CCN(C(=O)CC3=CCCCC3)CC2)CC1 | 115.2 | x | x | x | i | 0.88 | -7.7
O=C(NCCc1ccccc1)c1ccc(CS(=O)(=O)Cc2ccccc2F)o1 | 102.1 | 9.3 | -22.2 | 171.1 | i | 0.9 | 0.7
CCCC(=O)NC(=S)Nc1ccccc1C(F)(F)F | 99.4 | -1.2 | 33.3 | 79.9 | i | 0.94 | -3.5
CC(=O)Nc1ccc(-c2csc(NC(=O)CCCc3cccs3)n2)cc1 | 110.6 | -0.5 | -2.7 | 102.2 | i | 0.85 | -14.4
c1ccc(COc2ccc(CNCc3cccnc3)cc2)cc1 | 97.7 | x | x | x | i | 0.99 | 7.2
N#CC1=C(N)C(C#N)(C#N)[C@H](c2cccnc2)[C@H]2CN(C(=O)OCc3ccccc3)CC=C12 | 97.0 | -0.3 | 0.0 | 68.8 | u | x | -18.5
Cc1ccc(C2=Nc3cccnc3C(c3ccccc3)=NN2)cc1 | 100.3 | x | 0.0 | 116.5 | i | 0.89 | -1.3
Cc1cc2nc(C3CCN(Cc4nnnn4Cc4cccs4)CC3)[nH]c2cc1C | 205.4 | -1.5 | x | x | i | 1.05 | -12.8
COc1ccccc1NC(=S)NC(=O)C(C)(C)C | 84.7 | -0.6 | x | x | i | 0.81 | 0.9
O=C(CSc1nnc(-c2ccc(F)cc2)c2ccccc12)NCC1CCCO1 (stereo not drawn) | 101.1 | x | x | x | i | 0.89 | -6.5
CCOc1ccc(S(=O)(=O)NCCCl)cc1 | 111.9 | x | x | x | i | 1 | -5.7
CCN(C(=O)CSc1nnc(C)n1Cc1ccccc1)C1CCS(=O)(=O)C1 (stereo not drawn) | 101.1 | x | x | x | i | 0.99 | -8.4

The final 4 entries of the part above open the next one.
SMILES | RGS16-Gao HTS | GALR2 ag | INS promoter inh | INS promoter inh cell count | HSV replic up | HSV replic up primary fold | PKD1 inh
COc1ccccc1NC(=S)NC(=O)C(C)(C)C | 84.7 | -0.6 | x | x | i | 0.81 | 0.9
O=C(CSc1nnc(-c2ccc(F)cc2)c2ccccc12)NCC1CCCO1 (stereo not drawn) | 101.1 | x | x | x | i | 0.89 | -6.5
CCOc1ccc(S(=O)(=O)NCCCl)cc1 | 111.9 | x | x | x | i | 1 | -5.7
CCN(C(=O)CSc1nnc(C)n1Cc1ccccc1)C1CCS(=O)(=O)C1 (stereo not drawn) | 101.1 | x | x | x | i | 0.99 | -8.4
Cc1cc(-c2nn(-c3ccccc3F)cc2CN2CCC(C(N)=O)CC2)c(C)s1 | 99.5 | x | x | x | i | 1.03 | 5.0
CCc1nnc(NC(=O)C2=NN(C3CCS(=O)(=O)C3)C(=O)CC2)s1 (stereo not drawn) | 97.5 | x | x | x | i | 0.98 | -8.8
CC1(C)CC(=O)C(C=Nc2ccc3cn[nH]c3c2)=C(O)C1 | 100.2 | -0.4 | 14.3 | 92.6 | i | 0.81 | 7.6
CCc1ccccc1NC(=O)CSc1ccsc1[N+](=O)[O-] | 95.1 | 0.0 | 28.0 | 166.9 | i | 0.85 | -6.2
Cc1onc(-c2ccccc2)c1C(=O)N1CC(C)OC(C)C1 (stereo not drawn) | 83.8 | -1.4 | x | x | i | 1.03 | 1.8
CCCOc1ccc(N2C(=O)CC(N(CCc3ccc(OC)c(OC)c3)C(=S)Nc3ccccc3)C2=O)cc1 (stereo not drawn) | 107.9 | -1.4 | x | x | i | 0.75 | 4.3
CCS(=O)(=O)Nc1cccc(-c2cc(-c3ccccc3)c3cc(C)ccc3n2)c1 | 101.1 | -0.1 | x | x | i | 1.01 | -2.9
Cc1nc(Nc2cccc(C(C)O)c2)c2nnn(Cc3ccccc3F)c2n1 (stereo not drawn) | 106.9 | x | x | x | i | 0.89 | 3.1
COc1ccc(OC)c(C2CC(=O)N3CN(c4ccccc4F)CSC3=C2C#N)c1 (stereo not drawn) | 97.3 | -1.0 | x | x | i | 1.08 | 9.3
COC(=O)c1c(-c2ccccc2)csc1N | 99.9 | -1.2 | -14.3 | 116.9 | i | 0.89 | 0.7
CC1CCc2c(sc3c2C2=NS(=O)(=O)CCN2C=N3)C1 (stereo not drawn) | 105.3 | 0.8 | -5.6 | 94.0 | i | 0.96 | 4.3
C=C(C)C(=O)Nc1cccc(C2=NOC3(C2)C[C@@H](C(N)=O)N(C(=O)c2ccc(OC)cc2)C3)c1 (stereo partly drawn) | 97.1 | x | x | x | i | 0.63 | x
Cc1nnsc1C(=O)Nc1cccc(Cl)c1 | 103.1 | x | 55.6 | 107.2 | i | 0.85 | 0.7
CCCCNC(=O)Nc1nc(SCC(=O)OCC)n[nH]1 | 106.3 | x | x | x | i | 1.15 | -2.3
CC#CCC(CC#CC)c1nc2ccccc2c(=O)n1N | 108.7 | -0.9 | 25.0 | 149.1 | x | x | -2.9
O=C(CSC(=S)N1CCCCC1)N1N=CCC1c1ccccc1 (stereo not drawn) | 103.9 | -0.4 | -13.8 | 69.8 | i | 0.82 | -5.7
CCOC(=O)C1=C(C)NC(C)=C(C(=O)OCC)C1C(=O)O | 99.3 | -2.1 | x | x | i | 0.83 | 10.9
C=CCn1cccc(C(=O)Nc2ccc(OC)cc2OC)c1=O | 102.4 | x | 33.3 | 147.8 | i | 0.89 | -2.5
O=C(Nc1ccccc1F)C1CCCN(S(=O)(=O)c2cccc3cccnc23)C1 (stereo not drawn) | 106.8 | -1.5 | x | x | i | 1.44 | -2.7
CCCNC(=O)Cn1cnc2sc(C(=O)Nc3ccc4c(c3)OCO4)c(C)c2c1=O | 95.1 | -0.9 | -9.1 | 155.2 | u | x | -2.0
Cc1cc(C)nc(SCC(=O)c2cc3ccccc3oc2=O)n1 | 100.8 | -0.8 | 57.9 | 112.1 | i | 0.89 | -7.3
O=C(O)Cc1sc(NCc2ccco2)nc1-c1ccccc1 | 91.8 | x | x | x | i | 1.06 | x
O=C(O)C1CC=C(Cl)CC1C(=O)NCC1OCCc2ccccc21 (stereo not drawn) | 106.3 | -0.8 | -54.5 | 111.5 | i | 1 | 0.8

Screening results: PubChem BioAssay, several laboratories
